# ID4 SMM = ID4 (human) binding | P47928 | small molecule microarray, Flag-ID4 binding, fluorescence F/B | calls only | 31,000 compounds, 1.2% hits;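 active = spot signal over background at p below 0.07 in all four prints; compounds were printed on slides so no solution concentration is given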;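 also: a binder raises fluorescence above local background on the spot; about 2 pmol printed per array spot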
# Target sequence (P47928 whole entry, looked up): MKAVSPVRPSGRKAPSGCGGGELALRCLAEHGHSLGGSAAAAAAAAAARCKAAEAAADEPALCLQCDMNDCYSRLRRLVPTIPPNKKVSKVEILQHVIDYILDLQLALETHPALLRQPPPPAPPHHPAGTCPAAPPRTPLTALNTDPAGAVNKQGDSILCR
# Calls only; i = inactive. Not all compounds are listed; count on the stated rates, not on these rows.
SMILES,ID4 SMM
Cc1scc2c1N(C(=O)CN1CCN(C)CC1)c1ccccc1NC2=O,i
COc1ccc(-c2oc3c(CC=C(C)C)c(O[C@@H]4O[C@H](CO)[C@@H](O)[C@H](O)[C@H]4O)cc(O)c3c(=O)c2O[C@@H]2O[C@@H](C)[C@H](O)[C@@H](O)[C@H]2O)cc1,i
O=C(O)c1cc(=O)c2ccccc2o1,i
C[C@@H]1CC[C@]2(C(=O)O)CC[C@]3(C)C(=CCC4[C@@]5(C)C[C@@H](O)[C@H](O)[C@@](C)(CO)C5CC[C@]43C)C2[C@H]1C (some centres undefined),i
C[C@@H]1C[C@H]2[C@@H]3CCC4=CC(=O)C=C[C@]4(C)[C@@]3(Cl)[C@@H](O)C[C@]2(C)[C@@]1(OC(=O)c1ccco1)C(=O)CCl,i
CCCCC(=O)O[C@]1(C(=O)CO)[C@@H](C)CC2C3CCC4=CC(=O)C=C[C@]4(C)[C@@]3(F)C(O)C[C@@]21C (some centres undefined),i
Cc1cc(=O)oc2cc(O)ccc12,i
O=C1c2c(O)ccc(O)c2C(=O)c2c(NCCNCCO)ccc(NCCNCCO)c21,i

# Part of the list above, with each value named.
COc1ccc(-c2oc3c(CC=C(C)C)c(O[C@@H]4O[C@H](CO)[C@@H](O)[C@H](O)[C@H]4O)cc(O)c3c(=O)c2O[C@@H]2O[C@@H](C)[C@H](O)[C@@H](O)[C@H]2O)cc1
  ID4 SMM = i
O=C(O)c1cc(=O)c2ccccc2o1
  ID4 SMM = i
C[C@@H]1CC[C@]2(C(=O)O)CC[C@]3(C)C(=CCC4[C@@]5(C)C[C@@H](O)[C@H](O)[C@@](C)(CO)C5CC[C@]43C)C2[C@H]1C (some centres undefined)
  ID4 SMM = i
C[C@@H]1C[C@H]2[C@@H]3CCC4=CC(=O)C=C[C@]4(C)[C@@]3(Cl)[C@@H](O)C[C@]2(C)[C@@]1(OC(=O)c1ccco1)C(=O)CCl
  ID4 SMM = i

# Screening results as filed in PubChem BioAssay.
